2A firefly – FMDV 2A StopGo reporter, firefly signal; 0.23% of 120,000 active; Potency, µM (titrated, usually from 57.5 µM), without a hit: top-dose signal change, negative = less light; AID 1745856; HEK cells with a luciferase reporter of 2A StopGo recoding; active = well fitted falling curve with a large enough effect; inconclusive = small, poorly fitted or top-dose-only effect; inactive = no such curve, though single readings can be large or run the other way; also: nearly all actives have a fitted effect of over 60% in size; overnight with compound
StopGo RLuc – lowers the Renilla signal of an FMDV 2A StopGo reporter | Potency, µM (highest dose often 57.5 µM), without a hit: at the highest dose signal change, negative = less light | HEK cells with a luciferase reporter of 2A StopGo recoding | AID 1745857 | 0.32% of 120,000 active; active means well fitted falling curve with a large enough effect; inconclusive means small, poorly fitted or top-dose-only effect; inactive means no such curve, though single readings can be large or run the other way; also: nearly all actives have a fitted effect of over 55% in size; overnight with compound
Active calls of the source: *; ? = inconclusive; & = joins results of further samples; [ ] = dose if it differs, or a comment. % is scaled to controls: 0 for no effect and ±100 for the full control effect; potency is read from the fitted curve at half-maximal effect.

SMILES	2A firefly	StopGo RLuc
O=C(Nc1ccc(-n2cncn2)nc1)C1CC(=O)N(CC2CC2)C1 (centres undefined)	-6%	-12%
CC1Cc2nc(SCC(=O)N3CCCCC3)n(-c3ccc(F)cc3)c(=O)c2S1 (centres undefined)	-6%	0%
C=CCn1c(C)cc(C(=O)CN2C(=O)NC(Cc3c[nH]c4ccccc34)C2=O)c1C (centres undefined)	29%	-3%
Cc1cc(C)cc(NC(=O)C2CCCN(S(=O)(=O)c3cccc4nsnc34)C2)c1 (centres undefined)	-7%	-2%
CC(C)(C)c1ccc(C(=O)NCCC(=O)O)cc1	14%	-6%
CCC(C)NS(=O)(=O)c1ccc(N2C(=O)CCS2(=O)=O)cc1 (centres undefined)	9%	-1%
CCc1ccc(-c2nn(CC(=O)Nc3ccccc3)c3c2cnc2ccc(F)cc23)cc1	89%[activator]	-16%
CCc1cccc(C)c1NC(=O)Cn1nc(C)c2nn(-c3ccc(Cl)cc3)c(C)c2c1=O	-10%	-13%
O=C(Nc1ccc2nc(SCC(=O)N3CCCc4ccccc43)sc2c1)c1cccc(F)c1	?	-29%&2%
CC1CSc2ccc(S(=O)(=O)NC3CCN(Cc4ccccc4)CC3)cc2NC1=O (centres undefined)	9%	-2%
Cn1c(=O)c2c(nc(SCC(=O)Nc3ccc(F)cc3)n2Cc2ccccc2F)n(C)c1=O	2%	-12%
S=C(NCCc1ccccc1Cl)Nc1ccc(Cl)c(Cl)c1	?	-43%
Cn1nc(CC(=O)Nc2cccc(OC(=O)c3ccc(C(C)(C)C)cc3)c2)c2ccccc2c1=O	5%	4%
COc1ccccc1N1CCN(S(=O)(=O)c2c(C)sc3ncn(CC(=O)N(C)c4ccc(C(C)C)cc4)c(=O)c23)CC1	-8%	16%
CCCNC(=O)COc1cccc(-c2nc(-c3ccc(C)cc3)no2)c1	169%[activator]	1%
CN1CCN(c2ccc(C#N)cc2)CC1	2.8µM*	13%[1.06 µM]
COc1ccc(C(=O)NCc2cccc(C)c2)cc1	0%	3%
c1cncc(-c2nc(Sc3nnnn3C3CCCC3)c3ccccc3n2)c1	15%	-17%
CCN(CC)CCNC(=O)COc1ccc(Cl)cc1	-7%	2%
CCOc1ccc2c(c1)CN(C(=O)CCc1ncc(-c3ccccc3)o1)CC2	22%	-15%
COCCCNC(=O)COc1ccc2c(C)c(Cc3ccccc3)c(=O)oc2c1C	3%	7%
CCC(C)NC(=O)c1sc2nc(C)c(C(=O)Nc3ccc(Cl)cc3)c(-c3ccc(Br)cc3)c2c1N (centres undefined)	-2%	6%
CN(C)S(=O)(=O)c1ccc(Cl)c(C(=O)Nc2nnc(C3CC3)s2)c1	-10%	-12%
CC(=O)c1ccccc1NC(=O)CSc1nc(C2CC2)n(-c2ccccc2)n1	6%	23%

Part of the list above in order of formula weight, low to high:
SMILES	2A firefly	StopGo RLuc
CN1CCN(c2ccc(C#N)cc2)CC1	2.8µM*	13%[1.06 µM]
c1cncc(-c2nc(Sc3nnnn3C3CCCC3)c3ccccc3n2)c1	15%	-17%
CCOc1ccc2c(c1)CN(C(=O)CCc1ncc(-c3ccccc3)o1)CC2	22%	-15%
COCCCNC(=O)COc1ccc2c(C)c(Cc3ccccc3)c(=O)oc2c1C	3%	7%

Further structures follow:
SMILES	2A firefly	StopGo RLuc
COc1ccc(CCNC(=O)c2ccc3c(c2)N(Cc2cccc(Cl)c2)C(=O)c2ccccc2S3=O)cc1OC (centres undefined)	-17%	-6%
COC(=O)c1ccc(C(=O)N=c2sccn2C)cc1	140%[activator]	11%
O=C(NC1CCCC(C(F)(F)F)C1)c1ccccn1 (centres undefined)	23%	1%
COc1ccc(-n2nc(C(=O)NCCc3cccc(C)c3)c3c4ccccc4n(C)c3c2=O)cc1Cl	-17%	-13%
COc1ccc(NC(=O)CN2C(=O)CSc3ccc(S(=O)(=O)N4CCCC4)cc32)cc1OC	-14%	-3%
O=Cc1cccn1-c1ccc(Cl)cc1	10%	-12%
C=C(C)Cn1c(SCc2ccccc2Cl)nc2c1c(=O)n(C)c(=O)n2C	-7%	-2%
COc1ccc(NC(=O)c2ccc(-c3cccc(Cl)c3C)o2)cc1	-1%	-9%
Cc1cc(=O)n(CC(=O)NC(C)CCc2ccccc2)c(-c2ccc(F)cc2)n1 (centres undefined)	-5%	-12%
O=C(NCc1ccncc1)c1nn(-c2ccccc2)c(=O)c2ccccc12	-11%	7%
O=C(Cn1nc(-c2ccccc2)nc(Cc2ccccc2)c1=O)Nc1ccc(Cl)cc1	-18%	4%
CCN(C(=O)c1cccn(Cc2cccc(Cl)c2)c1=O)c1ccccc1	-7%	9%
Cc1ccc(C2CC(=O)N3CN(Cc4ccccc4)CSC3=C2C#N)cc1 (centres undefined)	1%	28%
O=C(CSc1ccc(Cl)cc1)c1cc2ccccc2oc1=O	0%	20%
O=C(OCc1coc(-c2cccs2)n1)c1ccc2c(c1)OCCCO2	21%	1%
N#Cc1c(NC(=O)CSc2ccccn2)sc2c1CCCC2	173%[activator]	18%
CC(=O)Nc1cc(C(=O)NCc2ccc(C)cc2)ccc1Sc1ccc(C)cc1	-18%	-8%
Cc1ccc(Nc2cc(C(=O)NC3CCC(C)CC3)c3ccccc3n2)cc1C (centres undefined)	129%[activator]	54%[activator]
Cc1ccc2c(c1)C1(CC(=O)Nc3c1cnn3-c1ccc(C(F)(F)F)cc1)C(=O)N2 (centres undefined)	0%	-6%
CCCCOC(=O)/C(C#N)=C/c1ccc(-c2ccccc2)o1	0%	0%
CCOc1ccc(CN(CCc2ccc3c(c2)OCO3)Cc2cccc(C)c2)cc1	-5%	-12%
CCCCCCNC(=O)C(C#N)c1nc2ccccc2nc1N1CCN(C(=O)OCC)CC1 (centres undefined)	2%	-6%
Cc1ccc(C(=O)NCc2ccc3c(c2)CCN3C(=O)c2ccc(C)cc2)cc1	6%	24%
O=C1/C(=C/c2ccc(OC(F)F)cc2)CCc2ccccc21	91%[activator]	5%
CCCOc1ccc(NC(=O)COc2ccccc2OC)c2cccnc12	?	?
COCCn1c(C)cc(C(=O)COC(=O)c2c(C)nn(Cc3ccc(C)cc3)c2Cl)c1C	?	?
CCCCN(CC)c1ccc(NS(=O)(=O)c2ccc(C(C)=O)cc2)cc1C(=O)O	11%	-3%
CCOC(=O)C(NC(=O)c1ccc(OC)cc1)(Nc1cc(Cl)ccc1OC)C(F)(F)F (centres undefined)	85%[activator]	101%[activator]
COc1ccc(NC(=O)Cn2c(=O)n(Cc3ccccc3)c(=O)c3oc4ccccc4c32)cc1Cl	0%	5%
O=C1/C(=C/c2ccccc2)CCc2ccccc21	178%[activator]	22%
CCc1cccc(NC(=O)CN(C)S(=O)(=O)c2cccc3cccnc23)c1	4%	36%[activator]
COc1cccc(-c2nc3cc(NC(=O)CC(C)C)ccc3o2)c1	217%[activator]	35%[activator]
CC(C)c1cccc(OCC(=O)N2CCCC2)c1	123%[activator]	16%
Cc1cc(SCC(=O)c2c(N)n(Cc3ccccc3)c(=O)n(C)c2=O)nc2ccccc12	1%	0%
CC(=O)Nc1cccc(NC(=O)C2CCN(c3nc4ccccc4o3)CC2)c1	-5%	-22%
COc1cnc(CSc2nc(C)cs2)cc1OCC(=O)N1CCc2ccccc21	-6%	-4%
CN(C)C(=O)c1ccc(NC(=O)COc2ccc(-c3ccc(Br)cc3)cc2)cc1	1%	-4%
O=C1CC(c2c[nH]c3ccccc23)C(=O)N1c1cccc(Br)c1 (centres undefined)	-4%	-11%
NC(N)=Nc1nc(=O)c2ccccc2s1	210%[activator]	11%
O=C(OCC(=O)c1c[nH]c2ccccc12)c1cc2ccccc2s1	2%	-12%
O=C(Cc1ccc(Br)cc1)Nc1cccc2ncccc12	13%	-8%
CC(NC(=O)Nc1ccc(F)c(Cl)c1)c1ccc(Cl)s1 (centres undefined)	?	?
COc1ccccc1NC(=O)CN1C(=O)C2(SCC(=O)N2c2ccc(F)c(F)c2)c2ccccc21 (centres undefined)	-24%	-17%
COCCNC(=O)CN1C(=O)c2cccnc2Oc2ccc(Cl)cc21	-11%	-12%
Cc1cc(C(=O)OCC(=O)Nc2c(F)cccc2F)c(C)n1C1CC1	67%[activator]	-2%
Cc1cc(C(=O)CSc2nc3cc([N+](=O)[O-])ccc3o2)c(C)n1C(C)C	15%	16%
COc1cccc(Oc2coc3cc(OC(=O)c4ccccc4)ccc3c2=O)c1	42%[activator]	-10%
Cc1cc(C)cc(NC(=O)c2nn(Cc3ccccc3)c(=O)c3ccccc23)c1	-6%	-3%
Cn1c(=O)c(=O)n(C)c2cc(S(=O)(=O)N3CCN(c4ccccc4F)CC3)ccc21	55%[activator]	13%
O=C1Nc2ccccc2/C1=C/c1csc(-c2ccccc2)n1	22%	-1%
CCCC(=O)Nc1ccc(OCC)c2ncccc12	-3%	-7%
Cc1ccccc1C(C)NC(=O)Cn1cnc(C#N)n1 (centres undefined)	3%	5%
CCC(=O)N1N=C(c2ccc(NS(C)(=O)=O)cc2)CC1c1ccc(F)cc1 (centres undefined)	11%	-10%
Fc1ccc(CCNC(=S)NC2CCCCC2)cc1	218%[activator]	180%[activator]
Cc1cccc(C(=O)Nc2cnc3ccccc3c2)c1C	-31%	1%
C=CCN(CC(F)(F)F)C(=O)CCc1c[nH]c2ccccc12	21%	0%
CCCCC(=O)N1CCc2cc(OC)c(OC)cc2C1COc1ccc(C(=O)OCC)cc1 (centres undefined)	-15%	-3%
CC(=O)N1CCN(C(=O)c2cc(C3CC3)nc3ccccc23)CC1	-15%	-4%
COc1ccc2c(c1)c1c(c(=O)n(Cc3ccccc3)c(=O)n1CC(=O)Nc1c(C)cccc1C)n2C	3%	5%
CCCNC(=O)/C(=C/c1cn(S(=O)(=O)N(C)C)c2ccccc12)NC(=O)c1ccccc1OC	20%	349%[activator]

Next results.
SMILES	2A firefly	StopGo RLuc
FC(F)(F)c1cnc(Sc2nnc(C3CC3)n2C2CC2)c(Cl)c1	0%	18%
Cc1c(C)n(Cc2ccccc2)c2ccc(C(=O)N3CCN(c4ccc(F)cc4)CC3)cc12	-17%	9%
CN(C)c1ccc(CNC(=O)c2cnc3sc(N4CCCC4)nn3c2=O)cc1	2%	1%
COc1cccc(N2CCN(C(=O)COc3ccc4c(=O)c(-c5ccccc5)coc4c3)CC2)c1	6%	2%
CCN(CC)c1ccc(C(=O)N2CCC(c3ccncc3)CC2)cc1	17%	32%[activator]
O=C(CC1(O)C(=O)N(CN2CCOCC2)c2ccccc21)c1ccc(F)cc1 (centres undefined)	13%	23%
O=c1c2cccnc2ncn1CC(O)c1ccc(C(F)(F)F)cc1 (centres undefined)	0%	-13%
CCOC(=O)c1nc(Nc2ccc(OCC)cc2)c2ccccc2n1	10%	-6%
COc1cc(B(O)O)ccc1Cl	0%	16%
COC(=O)c1cc(-c2ccc(F)cc2)nc2onc(-c3ccccc3)c12	18%	11%
Cc1ccc2c(CSc3n[nH]c(=O)n3C3CC3)cc(=O)oc2c1C	32%[activator]	8%
O=C(O)CCc1nc(-c2ccccc2)c(-c2ccccc2)o1	-2%	-14%
Cn1c(=O)c2c(ncn2C)n(C)c1=O	-10%[11.5 µM]	-13%
Cc1cccc(NC(=O)NCCOCCn2c(=O)oc3ccccc32)c1C	-17%	24%
O=C(NC1=NCCS1)c1ccc2nccnc2c1	81%[activator]	9%
COc1ccc(C(=O)Nc2ccc3oc(-c4ccccc4F)cc(=O)c3c2)cc1	193%[activator]	5%
COc1ccc(-c2nc(SCC(=O)Nc3ccc4c(c3)OCO4)c(-c3ccc(F)cc3)[nH]2)cc1OC	-15%	10%
COc1cccc(NC(=O)Cn2nc(N3CCN(c4ccccc4)CC3)ccc2=O)c1	13%	-2%
CCOCCCNC(=O)CS(=O)(=O)Cc1nc(-c2ccc(C)cc2)oc1C	0%	0%
CCOC(=O)c1[nH]c(C)c(CCC(=O)Nc2ccccc2C(=O)OC)c1C	18%	31%[activator]
O=C(Nc1ncn(Cc2ccccc2)n1)c1cc(S(=O)(=O)N2CCCC2)c(Cl)cc1Cl	-10%	-14%
Cn1c(=O)c2c(ncn2Cc2ccc(Br)cc2)n(C)c1=O	?	?
COc1ccc(-c2cc(C(F)(F)F)nc(SCCC(=O)NC(C)C)n2)cc1	-5%	5%
Cc1ccc2oc(C(=O)N3CCC(Cc4ccccc4)CC3)cc(=O)c2c1	-2%	-1%

Compounds above with a CF3 group:
SMILES	2A firefly	StopGo RLuc
O=C(NC1CCCC(C(F)(F)F)C1)c1ccccn1 (centres undefined)	23%	1%
Cc1ccc2c(c1)C1(CC(=O)Nc3c1cnn3-c1ccc(C(F)(F)F)cc1)C(=O)N2 (centres undefined)	0%	-6%
CCOC(=O)C(NC(=O)c1ccc(OC)cc1)(Nc1cc(Cl)ccc1OC)C(F)(F)F (centres undefined)	85%[activator]	101%[activator]
C=CCN(CC(F)(F)F)C(=O)CCc1c[nH]c2ccccc12	21%	0%
FC(F)(F)c1cnc(Sc2nnc(C3CC3)n2C2CC2)c(Cl)c1	0%	18%
O=c1c2cccnc2ncn1CC(O)c1ccc(C(F)(F)F)cc1 (centres undefined)	0%	-13%
COc1ccc(-c2cc(C(F)(F)F)nc(SCCC(=O)NC(C)C)n2)cc1	-5%	5%

The listing continues.
SMILES	2A firefly	StopGo RLuc
CCCCCn1c(=O)[nH]c2cc(C(=O)N3CCN(c4ccccc4F)CC3)ccc2c1=O	-16%	-8%
COc1ccc(-c2c(C)c3cc(OS(=O)(=O)c4ccc(F)cc4)ccc3oc2=O)cc1OC	?	-29%
O=C(CN1C(=O)CC(c2ccco2)Sc2ccccc21)Nc1ccc(Br)cc1 (centres undefined)	-15%	23%
Cn1c[n+]([O-])c2ccccc21	11%	3%
Cc1ccc(S(=O)(=O)N2CCCc3ccccc32)c(C)c1	12%	52%[activator]
Cc1nnc(NC(=O)c2nn(CC(C)C)c(=O)c3ccccc23)s1	43%[activator]	64%[activator]

Screening data: PubChem, National Center for Advancing Translational Sciences (NCATS)

A portion of the library; the hit share may differ from the screen's.
